Assay outcomes as filed in PubChem BioAssay.
Sa growth inh = inhibitors of Staphylococcus aureus growth at 42 °C | AID 720641 | S. aureus RN4220 growth, OD600, 20 h; stronger effect = lower value | 170,000 tested, 0.53% active | relative growth, % (no concentration beside the values);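 active = growth at 42 °C up to 50% and 20 or more points under that at 30 °C, or under 10% at both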;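 also: 300 nL library stock went into each well; scaled to the means of positive and negative controls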
HCMV UL50-53 inh = cytomegalovirus nuclear egress complex inhibition | HTRF UL50-UL53 interaction, normalized percent inhibition | inhibition, % (no concentration beside the values) | 190,000 tested, 0.15% active;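 active = both replicates at 50% or more, plus weaker picks with an unusually low signal ratio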;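 also: stock transfer was 100 nL into about 20 µL; 0% = negative control wells and 100% = wells with untagged competitor protein; inactives centre near -12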
GIV-Gai inh = GIV-Galpha-i interaction inhibition; AID 1224905; 210,000 tested, 0.42% active; Galpha-i3/FITC-GIV peptide fluorescence polarization, 90 min; stronger effect = lower value; scaled: aluminum fluoride 0%, vehicle 100%; percent of control (FP), % (concentration not given with the values);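 active = replicate mean at 85% of control or lower, very high polarization wells dropped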;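 also: wells of about 15 µL received 100 nL stock; the first replicate is given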
Target sequence (P08753 whole entry, looked up): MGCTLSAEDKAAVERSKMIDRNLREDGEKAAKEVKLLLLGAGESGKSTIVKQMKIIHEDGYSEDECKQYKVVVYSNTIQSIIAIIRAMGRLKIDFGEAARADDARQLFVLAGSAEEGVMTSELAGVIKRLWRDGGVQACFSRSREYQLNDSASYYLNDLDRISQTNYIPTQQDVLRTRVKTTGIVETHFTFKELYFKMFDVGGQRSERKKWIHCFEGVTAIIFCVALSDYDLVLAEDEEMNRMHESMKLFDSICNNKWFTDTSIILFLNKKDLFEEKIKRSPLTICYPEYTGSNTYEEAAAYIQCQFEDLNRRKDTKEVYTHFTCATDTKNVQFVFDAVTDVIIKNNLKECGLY
Sa growth inh second temp = also measured in Sa growth inh; calls as there; relative growth, %; measured here: growth at 30 °C;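 optical density after 20 h as mean of two plates; 100% = untreated growth and lower means inhibition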
An asterisk follows results filed as active; / = no result given; & = joins results of further samples.

| molecule | Sa growth inh | Sa growth inh second temp | HCMV UL50-53 inh | GIV-Gai inh |
| --- | --- | --- | --- | --- |
| CCN(Cc1ccccc1)C(=O)C1C(=O)CC(C)(C)C(C(=O)OC)C1=O (stereo unspecified) | 88.7 | 78.7 | -14.1 | 102.0 |
| Cn1nnc(NCc2cc(Br)ccc2OCc2ccccc2F)n1 | 97.5 | 56.5 | / | 100.4 |
| COc1cccc2c(=O)c(NC(=O)NCC3CCCO3)c[nH]c12 (stereo unspecified) | / | / | 16.1 | 96.7 |
| O=C(Nc1ccccc1C(=O)OCc1cc(=O)n2nc(C3CC3)sc2n1)c1cccc(F)c1 | 90.3 | 90.4 | / | 103.7 |
| O=C(CSc1nc2c([nH]c3ccccc32)c(=O)n1-c1ccccc1)NCc1ccc(F)cc1 | 115.6 | 82.4 | / | 100.8 |
| O=C(NCC12CC3CC(CC(C3)C1)C2)c1cc2nc(-c3ccccc3)cc(C(F)(F)F)n2n1 | 91.2 | 87.3 | -6.3 | 107.6 |
| Cc1cc(N2CCN(C3CCCCC3)CC2)nc2cc(O)ccc12 | 82.9 | 79.0 | -4.5 | 100.6 |
| Cc1nnc(SCC(=O)N2N=CCC2c2ccccc2)s1 (stereo unspecified) | 104.0 | 92.9 | -5.4 | 108.3 |
| CCOC(=O)c1sc(N=Nc2cc3c4c(c2O)CCCN4CCC3)c(C(=O)OCC)c1C | 104.5 | 97.7 | -19.8 | 100.7 |
| CCCN(c1nc2nc(C)c(Cl)c(C)n2n1)S(=O)(=O)c1ccc(Cl)cc1 | / | / | -17.5 | 100.7 |
| C1=CC2C(C1)C1CC(NC3=NCCS3)C2C1 (stereo unspecified) | 103.1 | 99.5 | -5.1 | 99.8 |
| Cn1nnc2cc(C(=O)NC3CC3)ccc21 | 92.0 | 81.9 | -12.2 | / |
| CCc1nn(-c2ccccc2)c2nc(-c3ccccc3)nc(SCC(=O)Nc3ccccc3OC)c12 | / | / | -3.0 | 103.1 |
| Cc1cccc(C(=O)Nc2ccc3nc(N4CCC(N5CCCCC5)CC4)cc(C(=O)O)c3c2)c1 | / | / | -33.6 | 112.4 |
| CCC1CN(C(=O)Nc2cc(OC)cc(OC)c2)c2ccccc2S1 (stereo unspecified) | 103.0 | 103.9 | / | 109.3 |
| COc1ccc(C=Nc2ccccc2C(=O)O)cc1 | 77.9 | 96.1 | -3.8 | / |
| O=C(O)C1CC=CCC1C(=O)Nc1ccccc1S (stereo unspecified) | 124.7 | 94.2 | / | 94.1 |
| CCN(CC)C(=O)CSc1nnc(CN(c2ccc(F)cc2)S(C)(=O)=O)n1C | / | / | -17.5 | 99.8 |
| O=C(NCCS(=O)(=O)N1CCCCC1)c1ccccc1 | 88.2 | 89.0 | -26.7 | 98.8 |
| CCCCC(=O)Nc1nnc(-c2ccc(Cl)s2)o1 | 8.8* | 10.6* | -43.1 | 103.4 |
| Cc1cc(C(=O)NCc2ccc(Cl)cc2)c2c(=O)n(C)c(=O)n(C)c2n1 | / | / | -13.7 | 104.0 |
| Cc1cc(=O)oc2c1c(C(F)(F)F)nn2C | 91.3 | 83.4 | -14.0 | 106.6 |
| O=C(CN1C(=O)S/C(=C\c2ccc(N3CCOCC3)o2)C1=O)Nc1ccccc1F | 90.5 | 94.7 | -26.3 | -19.3* |
| O=C(Nc1ccc(Cl)c(Cl)c1)N(Cc1c[nH]c2ccccc12)C1CCCCC1 | 115.2 | 97.5 | -24.0 | 103.0 |
| CCC(=O)N1CCc2cc(S(=O)(=O)N3CCN(c4ccccc4F)CC3)ccc21 | 106.5 | 92.5 | -10.9 | 104.3 |
| Cc1cccc(Cn2c(CN3CCC(C(=O)NCc4ccccc4Cl)CC3)cc3ccccc32)c1 | 119.7 | 86.1 | / | 101.6 |
| Cc1ccc(NC(=O)CSc2nc3c(c(=O)n2-c2ccccc2)SCC3)cc1 | 96.9 | 98.3 | -22.5 | 105.8 |
| CC(=O)c1ccc(NC(=O)CN2C(=O)CN(C)C(=O)c3ccccc32)cc1 | 117.1 | 85.5 | / | 104.8 |
| Cc1ccc(S(=O)(=O)c2ccc(-c3ccccc3)cc2)cc1 | 88.7 | 82.5 | / | 107.5 |
| N#C/C(=C/Nc1cccc2ccccc12)c1nc2ccccc2o1 | 99.6 | 111.8 | -7.0 | 102.7 |
| CC1CCCN(CCCNS(=O)(=O)c2cc(Br)cc3c2N(C(=O)C2CC2)CC3)C1 (stereo unspecified) | 96.4 | 88.2 | -10.5 | 103.9 |
| C=CCN1C(=O)/C(=C\c2cc3c4c(c2)CCCN4CCC3)C(=O)NC1=S | 67.5 | 39.2 | -12.8 | 117.9 |
| O=C(/C=C/c1cccs1)NC(=S)N1CCCC1 | 86.2 | 77.8 | -43.9 | 103.3 |
| CCOc1ccccc1C(=O)NC1CCS(=O)(=O)C1 (stereo unspecified) | 103.3 | 98.7 | -5.4 | / |
| CCN1C(=O)c2cccc3c(S(=O)(=O)Nc4nc(C)cs4)ccc1c23 | 89.1 | 49.3 | -90.5 | 104.8 |
| O=C(Cn1c2ncccc2c(=O)n1-c1ccccc1)NC1CCCC1 | / | / | 14.6 | 106.1 |
| O=C(CCN1C(=O)c2ccc([N+](=O)[O-])cc2C1=O)Nc1ccc(C(=O)O)cc1 | / | / | -56.6 | 108.0 |
| O=C(Cn1ccn2nc(-c3ccc(Cl)cc3)cc2c1=O)NCCCC1=CCCCC1 | / | / | -21.9 | 97.3 |
| COc1cc(/C=C2\SC(N(C)c3ccc(O)cc3)=NC2=O)ccc1OCC(=O)O | 96.8 | 83.2 | / | 92.7 |
| Cc1cccc(CSc2nc3nc[nH]c3c(=O)[nH]2)c1 | 99.5 | 76.7 | -7.8&-33.0 | 102.1&105.7 |
| CC(C)NC(=O)N1CCCC(c2cccc(C(=O)N3CCN(C)CC3)c2)C1 (stereo unspecified) | / | / | -17.5 | 107.2 |
| COc1ccc(CNC(=O)c2ccc3c(c2)C(=O)N(Cc2ccco2)C3=O)cc1 | 101.7 | 71.6 | / | 107.2 |
| Cc1ccc(-n2ncc(C(=O)N3CCN(Cc4ccccc4)CC3)c2C2CCN(C(=O)OC(C)(C)C)CC2)c(C)c1 | 112.7 | 82.8 | / | 111.3 |
| N#CC(C(=O)NCc1cccs1)c1ccccc1 (stereo unspecified) | 95.5 | 84.9 | -10.7 | / |
| c1cc2c(cc1-c1ccc(SCc3nc(-c4ccc5c(c4)OCO5)no3)nn1)OCO2 | / | / | -19.9 | 111.0 |
| Cc1c(NC(=S)NC(C)(C)C)c(=O)n(-c2ccccc2)n1C | 97.5 | 92.2 | -11.4 | 97.7 |
| Cc1cc2oc(C(=O)NCC(c3cccs3)N3CCCC3)c(C)c2cc1C (stereo unspecified) | / | / | -20.9 | 102.9 |
| NS(=O)(=O)c1ccc2[nH]c(=S)[nH]c2c1 | 76.3 | 87.0 | -6.8 | / |
| CCc1nn(-c2ccccc2)c2nc(-c3ccccc3)nc(SCC(=O)Nc3ccc(OC)c(OC)c3)c12 | / | / | 13.3 | 103.3 |
| Nc1n[nH]c(-c2ccc(Cl)cc2)c1Cl | 83.1 | 60.8 | -5.4 | 100.6 |
| Cc1ccc(NC(=O)CCc2nnc3ccc(N4CCC(Cc5ccccc5)CC4)nn23)cc1 | / | / | -10.5 | 98.5 |
| COc1cc(Nc2nc3ccccc3c3nnc(C)n23)cc(OC)c1 | 69.1 | 80.0 | / | 99.8 |
| CN(C(=O)CSc1nncn2c1cc1occc12)c1ccccc1 | 98.5 | 101.5 | / | 104.0 |
| Cc1cccc(OCCCn2c(CCNC(=O)C(C)(C)C)nc3ccccc32)c1 | 109.0 | 79.8 | -16.2 | 104.3 |
| COC(=O)Cn1c(C2CC(=O)N(Cc3ccccc3)C2)nc2ccccc21 (stereo unspecified) | / | / | -26.4 | 102.2 |
| COc1ccc(N2CCN(C(=O)CSc3nccn3C)CC2)cc1 | 100.0 | 94.4 | 9.1 | / |

Next part:
| molecule | Sa growth inh | Sa growth inh second temp | HCMV UL50-53 inh | GIV-Gai inh |
| --- | --- | --- | --- | --- |
| COc1cccc(NS(=O)(=O)c2ccc3[nH]cc(C(=O)N4CCCC4)c(=O)c3c2)c1 | 84.8 | 94.5 | 4.7 | 95.3 |
| CC1CC(=O)Nc2ccccc2N1C(=O)COC(=O)c1cn(C)c2ccccc12 (stereo unspecified) | 121.7 | 105.7 | 8.4 | / |
| CC(C)C(NS(=O)(=O)c1cccs1)C(=O)NCc1cccnc1 (stereo unspecified) | 97.5 | 103.5 | 4.5 | 105.5 |
| O=C(Nc1cccc(F)c1)/C(=C\c1cccs1)NC(=O)c1cccs1 | 98.1 | 98.3 | -49.1 | 105.8 |
| Cn1cccc1/C=N/NC(=O)c1cccc(S(=O)(=O)NCc2ccccc2)c1 | 84.7 | 90.8 | -33.9 | / |
| Cc1ccc(N2CCN(/N=C3/C(=O)Nc4c(Cl)cc(Cl)cc43)CC2)cc1 | 98.8 | 99.0 | -14.2 | / |
| CN1N=C(c2coc3ccccc23)CC1(O)C(F)(F)F (stereo unspecified) | 100.8 | 76.4 | -45.4 | 104.9 |
| CCc1nnc2c3ccccc3nc(Nc3ccc(F)c(Cl)c3)n12 | 112.1 | 90.4 | 5.4 | 106.5 |
| CC(C)C(=O)Nc1cccc(C(=O)Nc2nnc(CC(C)(C)C)s2)c1 | 119.2 | 92.0 | -22.3 | 103.8 |
| COc1nc(NC(=O)NS(=O)(=O)Nc2cccc3cccnc23)nc(OC)n1 | 80.4 | 83.7 | 6.6 | 109.5 |
| COc1ccc(C2CC(c3c(O)n(C)c(=S)n(C)c3=O)=NN2C(C)=O)cc1 (stereo unspecified) | / | / | -6.2 | 94.5 |
| O=C(NCc1ccc(F)cc1)c1n[nH]nc1Nc1cccc(Cl)c1 | / | / | -19.1 | 107.2 |
| CCOc1ccccc1NS(=O)(=O)c1ccc(-c2cnc(C3CC3)o2)cc1 | 100.0 | 100.4 | / | 100.4 |
| Cc1cccc(NC2=NCC(=O)N2Cc2ccccc2)c1 | 134.2 | 95.4 | 59.4* | 102.5 |
| CC(=O)NS(=O)(=O)c1ccc(NC(=O)COc2ccc(Cl)cc2C)cc1 | 84.3 | 98.0 | 2.7 | / |
| CCOC(=O)C1CCN(C(=O)c2cncc(-c3cccs3)c2)CC1 | 88.4 | 87.5 | -10.3 | 98.8 |
| COc1cc(OC)nc(NC(=O)CS(=O)(=O)c2ccccc2)n1 | 74.4 | 84.2 | / | 96.6 |
| CCOC(=O)/C(N=O)=C(/O)c1ccccc1 | 111.7 | 91.0 | -5.4 | 100.8 |
| Cc1cc(-c2onc(C)c2CO)no1 | 106.1 | 71.0 | 5.6 | 106.8 |
| O=C(Cc1ccccc1)n1cnc2ccccc21 | 117.8 | 95.5 | -20.0 | 108.3&102.0 |
| O=C(NC1CC1)c1cc(=S)[nH]c2ccccc12 | 98.2 | 99.1 | -50.1 | / |
| C=CCn1c(SCC(=O)N2CCOCC2)nc2sc3c(c2c1=O)CCC3 | / | / | -31.2 | 103.5 |
| Cc1cccc(C)c1Nc1c(-c2ccccc2Cl)nc2cnccn12 | 86.4 | 75.8 | 1.8&-48.0 | 107.4&104.0 |
| CC(C(=O)N1CCCCCC1)n1sc2ccccc2c1=O (stereo unspecified) | 103.4 | 88.2 | / | 99.0 |
| CCCCNC(=O)c1ccc(CS(=O)Cc2ccc(C)cc2)o1 (stereo unspecified) | 103.2 | 99.4 | -6.2 | 104.0 |
| O=C(CC1SC(=O)NC1=O)NCc1ccccc1 (stereo unspecified) | / | / | -31.8 | 98.0 |
| CCOc1ccc(S(=O)(=O)n2cnc3ccccc32)cc1 | 97.7 | 84.7 | / | 98.4 |
| COc1cc(C)c(S(=O)(=O)N2CCc3cc4ccc(C)cc4nc32)cc1C | / | / | 14.2 | 98.9 |
| CSCCC(C(=O)O)n1c(-c2ccc3ccccc3n2)n[nH]c1=S (stereo unspecified) | 95.5 | 85.0 | -15.0 | 95.1 |
| Oc1ccc(CNC2CCCCC2)cc1 | 102.6 | 91.5 | -1.8 | 95.1 |
| O=C(Nc1cccc(C(=O)N2CCN(c3ccc(Cl)cc3)CC2)c1)c1nsc2ccccc12 | 117.5 | 111.9 | / | 111.1 |
| Cc1ccc(C)c(NC(=O)Cn2nnc(C(=O)NCc3ccco3)c2N)c1 | 87.1 | 82.1 | / | 98.9 |
